# Yeast UUG start: yeast start codon fidelity modulation; S. cerevisiae UUG-firefly luciferase reporter, luminescence/redox ratio; activity score, % at 18.7 µM; 350,000 compounds, 0.13% hits; AID 602363;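 active = replicate mean at a twofold rise or more, about +100% in these data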;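 note: firefly luciferase made from a UUG start codon reports start codon fidelity; reporter light over untreated wells divided by growth signal over untreated wells; some hits fall short of that in this replicate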
# The depositor's hits bear a star.
SMILES,Yeast UUG start
Cn1cnc(S(=O)(=O)N2CCCCN3[C@H](CO)[C@@H](c4ccc(-c5ccccc5)cc4)[C@H]3C2)c1,15
COc1ccccc1-c1ccc([C@H]2[C@H]3CN(C(=O)c4ccncc4)CCCCN3[C@H]2CO)cc1,5
C[C@H]1CN([C@@H](C)CO)C(=O)c2cc(NC(=O)Nc3ccccc3)ccc2O[C@@H]1CN(C)C(=O)Nc1ccc(F)cc1,-11
C[C@H](CO)N1C[C@H](C)[C@@H](CN(C)Cc2ccc(C(F)(F)F)cc2)Oc2ccc(NC(=O)CCC(F)(F)F)cc2C1=O,-5
CN(C)C(=O)c1ccc(-c2ccc3c(c2)[C@H]2[C@H](CCN2C(=O)C2CCC2)[C@@H](CO)N3C)cc1,6
CN(C)C(=O)[C@@H]1[C@@H](CO)[C@@H]2Cn3c(ccc(-c4ccccc4)c3=O)[C@H]1N2C(=O)C1CC1,10
C[C@H]1CN([C@@H](C)CO)C(=O)c2cc(NC(=O)c3ccncc3)ccc2O[C@@H]1CN(C)S(=O)(=O)c1ccccc1,26
COc1ccc(S(=O)(=O)Nc2ccc3c(c2)C(=O)N([C@@H](C)CO)C[C@@H](C)[C@@H](CN(C)Cc2ccc(C(F)(F)F)cc2)O3)cc1,5
CO[C@@H]1CN(C)C(=O)c2ccc(NC(=O)Nc3ccccc3F)cc2OC[C@@H](C)N(Cc2ccccc2F)C[C@H]1C,0
C[C@@H]1CN([C@@H](C)CO)C(=O)c2cc(NC(=O)CCC(F)(F)F)ccc2O[C@@H]1CN(C)S(=O)(=O)c1ccc(Cl)cc1,0
O=C(c1ccncc1)N1CCCCN2[C@H](CO)[C@H](c3ccc(-c4ccccc4)cc3)[C@H]2C1,-16
CCC(=O)N1C[C@@H](C)[C@H](OC)CN(C)C(=O)c2cc(NC(=O)COC)ccc2OC[C@@H]1C,1
COCC(=O)N1C[C@@H]2[C@H](c3ccccc31)[C@@H](CO)N2C(=O)C1CCCCC1,-10
COc1ccc(CN(C)C[C@H]2Oc3ccc(NS(=O)(=O)c4ccc(C)cc4)cc3C(=O)N([C@H](C)CO)C[C@@H]2C)cc1,8
COc1ccc(CN(C)C[C@H]2Oc3ccc(NC(=O)NC(C)C)cc3CC(=O)N([C@@H](C)CO)C[C@@H]2C)cc1,-9
C[C@@H]1CN([C@@H](C)CO)C(=O)c2cccc(NS(=O)(=O)c3cccs3)c2O[C@H]1CN(C)C(=O)Nc1ccc(C(F)(F)F)cc1,37
COCC(=O)NC[C@@H]1[C@H](c2ccc(C3=CCCC3)cc2)[C@@H](CO)N1C(=O)C1CC1,3
C[C@H](CO)N1C[C@H](C)[C@@H](CN(C)Cc2ccc(Oc3ccccc3)cc2)Oc2ccc(NC(=O)CCN3CCOCC3)cc2C1=O,14
C[C@@H]1CN([C@H](C)CO)C(=O)c2cccc(NC(=O)NC3CCCCC3)c2O[C@@H]1CN(C)S(=O)(=O)c1ccc(F)cc1,-1
C[C@H]1CN([C@@H](C)CO)C(=O)c2cccc(NS(=O)(=O)c3cccs3)c2O[C@H]1CN(C)Cc1ccc(C(=O)O)cc1,-4
OC[C@H]1[C@@H](c2ccc(-c3cccnc3)cc2)[C@@H]2CN(Cc3ccccn3)CCCCN12,-29
CN(C)CC(=O)Nc1ccc2c(c1)[C@@H]1C[C@@H](CC(=O)N(C)C)O[C@H](CO)[C@@H]1O2,44
O=C(Nc1cccc(F)c1)N1C[C@H]2[C@@H](c3ccccc31)[C@H](CO)N2C(=O)Cc1ccccc1,10
C[C@@H]1CN([C@@H](C)CO)C(=O)Cc2cc(NC(=O)CCN3CCOCC3)ccc2O[C@H]1CN(C)Cc1ccc(Cl)c(Cl)c1,-1
CO[C@H]1CN(C)C(=O)c2ccc(NC(=O)c3ccc4c(c3)OCO4)cc2OC[C@H](C)NC[C@H]1C,5
C[C@H]1CN([C@@H](C)CO)C(=O)c2cccc(NC(=O)Nc3ccc4c(c3)OCO4)c2O[C@H]1CN(C)S(=O)(=O)c1ccc(Cl)cc1,-36
CCNC(=O)C[C@H]1CC[C@@H]2[C@H](COC[C@H](O)CN2S(=O)(=O)c2ccccc2F)O1,32
COc1cccc(C(=O)N2C[C@@H]3[C@H](c4ccccc42)[C@H](CO)N3Cc2ccccc2Cl)c1,10
COCC#Cc1ccc([C@H]2[C@H]3CN(S(=O)(=O)c4ccccc4C)CCCCN3[C@H]2CO)cc1,6
CN(C)C(=O)c1ccc(-c2ccc([C@@H]3[C@@H](CO)N4CCCCN(S(C)(=O)=O)C[C@H]34)cc2)cc1,-6
COCCNC(=O)C[C@H]1C[C@H]2c3cc(NC(=O)NC4CCCC4)ccc3O[C@H]2[C@@H](CO)O1,-4
Cn1cnc(CCNC(=O)C[C@H]2CC[C@@H]3[C@H](COC[C@@H](O)CN3C(=O)Nc3ccccc3)O2)c1,2
CN1c2ccc(-c3ccc(F)cc3)cc2[C@@H]2[C@@H](CCN2C(=O)Cc2ccccn2)[C@H]1CO,0
COCC(=O)N1CCCCN2[C@H](CO)[C@@H](c3ccc(-c4ccc(C)cc4)cc3)[C@@H]2C1,8
CN1c2ccc(Br)cc2[C@@H]2[C@@H](CCN2C(=O)Nc2cccc(F)c2)[C@H]1CO,-11
COc1ccc(NC(=O)Nc2ccc3c(c2)[C@@H]2C[C@@H](CC(=O)N4CCCCC4)O[C@@H](CO)[C@@H]2O3)cc1,8
C[C@@H]1CN([C@H](C)CO)C(=O)c2cc(NC(=O)Nc3ccccc3)ccc2O[C@H]1CN(C)S(=O)(=O)c1ccc(Cl)cc1,0
CN(C[C@@H]1[C@H](c2ccccc2)[C@@H](CO)N1C(=O)C1CCC1)C(=O)c1ccccn1,-12
O=C(C1CC1)N1[C@@H]2CN(S(=O)(=O)c3ccccc3)c3ccccc3[C@@H]2[C@@H]1CO,5
CCCC(=O)Nc1ccc2c(c1)C(=O)N(C)[C@@H]1CC[C@@H](CC(=O)NCCc3ccccc3)O[C@@H]1CO2,3
O=C(C[C@H]1CC[C@@H]2[C@H](COC[C@@H](O)CN2Cc2ccccc2F)O1)N1CCc2ccccc2C1,5
OC[C@H]1Nc2ccc(C#Cc3ccc(F)cc3)cc2[C@H]2[C@@H]1CCN2Cc1nccs1,-12
CN(C)CCCNC(=O)[C@H]1[C@H](CO)[C@H]2Cn3c(ccc(C4=CCCCC4)c3=O)[C@@H]1N2Cc1cocn1,-2
C[C@H]1CN([C@@H](C)CO)C(=O)c2cccc(NC(=O)Nc3ccc(F)cc3)c2O[C@H]1CN(C)Cc1ccc2c(c1)OCO2,-1
C[C@H](CO)N1C[C@H](C)[C@H](CN(C)S(=O)(=O)c2ccc(F)cc2)Oc2c(NC(=O)NC3CCCCC3)cccc2C1=O,-1
C[C@H](CO)N1C[C@H](C)[C@@H](CN(C)Cc2ccncc2)Oc2ccc(NS(=O)(=O)c3cn(C)cn3)cc2CC1=O,4
COCCNC(=O)C[C@@H]1CC[C@@H]2[C@H](COc3ccc(NS(=O)(=O)c4ccc(Cl)cc4)cc3C(=O)N2C)O1,3
CC(=O)N1[C@@H]2Cn3c(ccc(C4=CCCC4)c3=O)[C@H]1[C@@H](C(=O)N[C@@H](C)c1ccccc1)[C@@H]2CO,18
COc1cccc(-c2ccc3c(c2)[C@H]2[C@H](CCN2C(=O)c2ccc(F)cc2)[C@@H](CO)N3C)c1,-1
CC(C)NC(=O)N1C[C@H]2[C@@H](c3ccccc31)[C@@H](CO)N2Cc1ccccn1,-40
O=C(NC[C@H]1N[C@H](CO)[C@H]1c1ccc(-c2ccccc2F)cc1)c1ccccn1,5
COc1cccc(NC(=O)N2C[C@@H](O)COC[C@@H]3O[C@@H](CC(=O)NC4CCCC4)CC[C@H]32)c1,0
O=C(NCC(F)(F)F)[C@H]1[C@H](CO)[C@H]2Cn3c(cccc3=O)[C@H]2N1C(=O)C1CCCC1,-20
COc1ccc(-c2ccc([C@@H]3[C@@H](CO)N4CCCCN(CC5CCOCC5)C[C@H]34)cc2)cc1,-7
C[C@@H]1CN([C@H](C)CO)C(=O)c2cccc(NS(=O)(=O)c3ccc(Cl)cc3)c2O[C@@H]1CN(C)C(=O)NC1CCCCC1,16
C[C@@H]1CN([C@@H](C)CO)C(=O)c2cccc(NC(=O)Nc3ccc(F)cc3)c2O[C@@H]1CN(C)Cc1ccc(Cl)c(Cl)c1,12
C[C@@H]1CN([C@@H](C)CO)C(=O)Cc2cc(NS(=O)(=O)c3ccccc3)ccc2O[C@@H]1CN(C)Cc1ccncc1,-9
CN(C)C(=O)C[C@H]1CC[C@H]2[C@@H](COC[C@@H](O)CN2CC2CCOCC2)O1,-13
Cc1noc(C)c1S(=O)(=O)N(C)C[C@@H]1Oc2ccc(NS(C)(=O)=O)cc2C(=O)N([C@@H](C)CO)C[C@@H]1C,-6
O=C(C[C@@H]1C[C@@H]2c3cc(NC(=O)NC4CCCC4)ccc3O[C@@H]2[C@@H](CO)O1)NCc1ccc(-c2ccccc2)cc1,-14

# Later entries.
SMILES,Yeast UUG start
CCOC(=O)N(C)C[C@@H]1OCc2ccccc2-c2ccccc2C(=O)N([C@@H](C)CO)C[C@@H]1C,-16
CN1CCCCN2[C@H](CO)[C@H](c3ccc(-c4cccnc4)cc3)[C@H]2C1,-3
CCCC#Cc1ccc([C@H]2[C@H]3CN(Cc4cncnc4)CCCCN3[C@H]2CO)cc1,-10
CC(C)NC(=O)N(C)C[C@H]1Oc2ccc(NC(=O)CCN3CCOCC3)cc2CC(=O)N([C@@H](C)CO)C[C@@H]1C,4
COCC(=O)N1C[C@@H]2[C@H](c3ccccc31)[C@@H](CO)N2C(=O)C1CCCC1,3
Cc1noc(C)c1NC(=O)Nc1ccc2c(c1)CC(=O)N([C@@H](C)CO)C[C@@H](C)[C@@H](CN(C)C)O2,9
COCC(=O)N(C)C[C@@H]1[C@@H](c2ccc(-c3ccccc3)cc2)[C@H](CO)N1C(C)=O,-8
O=S(=O)(c1ccc(F)cc1)N1CCCCN2[C@H](CO)[C@H](c3ccc(-c4ccccc4)cc3)[C@@H]2C1,11
O=C(c1ccncc1)N1CC[C@H]2[C@H](CO)Nc3ccc(-c4ccc(F)cc4)cc3[C@H]21,-12
O=C(NC[C@@H]1N[C@@H](CO)[C@H]1c1ccc(C2=CCCC2)cc1)c1ccccc1,1
COc1ccccc1NC(=O)N1CC[C@@H]2[C@H]1c1cc(C#Cc3ccc(F)cc3)ccc1N(C)[C@@H]2CO,4
CO[C@H]1CN(C)C(=O)c2ccc(NC(=O)c3nc4ccccc4s3)cc2OC[C@H](C)N(Cc2cncnc2)C[C@@H]1C,6
CN1c2ccc(-c3ccccc3)cc2[C@H]2[C@H](CCN2C(=O)c2ccncc2)[C@H]1CO,-2
CN1C(=O)c2cc(NC(=O)c3cnccn3)ccc2OC[C@H]2O[C@@H](CC(=O)N[C@H]3CCN(Cc4ccccc4)C3)CC[C@H]21,14
C[C@H]1CN([C@@H](C)CO)C(=O)CCCn2cc(nn2)CO[C@H]1CN(C)S(=O)(=O)c1ccc(C#N)cc1,8

# Of the compounds above, these have an aryl methoxy group.
SMILES,Yeast UUG start
COc1ccccc1-c1ccc([C@H]2[C@H]3CN(C(=O)c4ccncc4)CCCCN3[C@H]2CO)cc1,5
COc1ccc(S(=O)(=O)Nc2ccc3c(c2)C(=O)N([C@@H](C)CO)C[C@@H](C)[C@@H](CN(C)Cc2ccc(C(F)(F)F)cc2)O3)cc1,5
COc1ccc(CN(C)C[C@H]2Oc3ccc(NS(=O)(=O)c4ccc(C)cc4)cc3C(=O)N([C@H](C)CO)C[C@@H]2C)cc1,8
COc1ccc(CN(C)C[C@H]2Oc3ccc(NC(=O)NC(C)C)cc3CC(=O)N([C@@H](C)CO)C[C@@H]2C)cc1,-9
COc1cccc(C(=O)N2C[C@@H]3[C@H](c4ccccc42)[C@H](CO)N3Cc2ccccc2Cl)c1,10
COc1ccc(NC(=O)Nc2ccc3c(c2)[C@@H]2C[C@@H](CC(=O)N4CCCCC4)O[C@@H](CO)[C@@H]2O3)cc1,8
COc1cccc(-c2ccc3c(c2)[C@H]2[C@H](CCN2C(=O)c2ccc(F)cc2)[C@@H](CO)N3C)c1,-1
COc1cccc(NC(=O)N2C[C@@H](O)COC[C@@H]3O[C@@H](CC(=O)NC4CCCC4)CC[C@H]32)c1,0
COc1ccc(-c2ccc([C@@H]3[C@@H](CO)N4CCCCN(CC5CCOCC5)C[C@H]34)cc2)cc1,-7
COc1ccccc1NC(=O)N1CC[C@@H]2[C@H]1c1cc(C#Cc3ccc(F)cc3)ccc1N(C)[C@@H]2CO,4

# (next part)
SMILES,Yeast UUG start
C[C@@H]1CN([C@H](C)CO)C(=O)Cc2cc(NC(=O)Nc3ccc(F)cc3)ccc2O[C@H]1CN(C)C(=O)Nc1ccccc1,-10
Cc1noc(C)c1S(=O)(=O)Nc1ccc2c(c1)C(=O)N([C@H](C)CO)C[C@H](C)[C@H](CN(C)Cc1ccc3c(c1)OCO3)O2,-21
CCCNC(=O)Nc1ccc2c(c1)OC[C@H](C)N(Cc1ccccn1)C[C@@H](C)[C@H](OC)CN(C)C2=O,-6
CCCCN(C(=O)C(C)Oc1ccc(Br)cc1)c1c(N)n(CC(C)C)c(=O)[nH]c1=O (stereo unspecified),0
COc1ccccc1NC(=O)N1CCCCN2[C@@H](CO)[C@H](c3ccc(-c4cccc(F)c4)cc3)[C@@H]2C1,-2
CN(C)CC#Cc1ccc([C@H]2[C@@H](CO)N3CCCCN(C(=O)c4ccc5c(c4)OCO5)C[C@H]23)cc1,-6
O=C(Nc1ccccc1F)N1CCCCN2[C@H](C1)[C@H](c1ccc(C3=CCCCC3)cc1)[C@@H]2CO,4
CC(C)NC(=O)Nc1ccc2c(c1)C(=O)N([C@H](C)CO)C[C@@H](C)[C@@H](CN(C)S(=O)(=O)c1ccc(Cl)cc1)O2,0
CO[C@@H]1CN(C)C(=O)c2cc(NC(C)=O)ccc2OC[C@@H](C)N(Cc2ccc(F)cc2)C[C@H]1C,2
CO[C@@H]1CN(C)C(=O)c2cc(NC(=O)C3CCC3)ccc2OC[C@@H](C)N(Cc2ccc(F)cc2)C[C@H]1C,1
Cc1ccc(S(=O)(=O)Nc2ccc3c(c2)CC(=O)N([C@@H](C)CO)C[C@@H](C)[C@H](CN(C)C)O3)cc1,25

# High-throughput results: PubChem, Broad Institute

# A portion of the library (hit frequency here may not be typical).
